# Assay outcomes deposited in PubChem BioAssay by National Center for Advancing Translational Sciences (NCATS).
# PMP22 txn: modulates PMP22 transcription in S16 Schwann cells | Potency, µM (top dose mostly 57.5 µM), for the others: top-dose activity change, negative = inhibition, most hits filed as inhibitors | S16 Pmp22-F2sN Schwann cells (luciferase reporters placed in the Pmp22 gene), FLuc/NLuc coincidence luminescence, 24 h | 2% of 43,000 active | AID 1508649; active = clear falling dose curves in both reporters; inconclusive = both reporters move, but less clearly or upward; inactive = either reporter flat; the % is the NLuc reporter signal; also: % is scaled to controls: 0 for no effect and ±100 for the full control effect; some results filed as inactive show a strong effect at the top dose
#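 qHTS, 1536-well. Cells seeded, compounds added by pin tool, 24 h 37C. Nano-Glo reagent 1 (lysis/FLuc), 10 min RT, read; Stop&Glo, 10 min RT, read NLuc.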
# HTT promoter inh: HTT promoter inhibition; HEK293 HTT promoter firefly luciferase reporter (activity 0% = vehicle and -100% = no light), 24 h; Potency, µM (top dose mostly 57.5 µM), without a hit: at the highest dose activity change, negative = inhibition, usual class: inhibitors; 0.93% of 48,000 active; AID 1508623; active = well fitted inhibition curve with a large enough effect; inconclusive = small, poorly fitted or top-dose-only effect; inactive = no such curve, though single readings can be large or run the other way; also: nearly all actives have a fitted effect of over 50% in size
#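 HEK293 luciferase promoter-reporter cells (2,500/well) plated 24 h, then compounds added at up to 57.5 uM final for 24 h at 37 °C. Firefly luminescence by Dual-Glo, normalized to vehicle (0%) and zero RLU (-100%).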
# * = called active by the depositor; ? = inconclusive; · = no result given; [ ] = dose if it differs, or a comment. Potency is read from the fitted curve at half-maximal effect.
No.	molecule	PMP22 txn	HTT promoter inh
1	O=C(NCC(c1ccc2c(c1)OCO2)N1CCN(c2ccccc2)CC1)c1ccc(F)c(F)c1 (stereo not drawn)	-1%	?
2	COc1ccc(NC(=O)C2CCN(c3cnccn3)CC2)cc1Cl	0%	-21%
3	O=C(CN1C(=O)COc2ccc(S(=O)(=O)NC3CCCC3)cc21)NCc1ccc(Cl)cc1	-29%	-15%
4	O=C(COc1ccccc1)NCc1ccc2c(c1)CCN2C(=O)c1ccccc1	?	?
5	COc1cccc(CNCCSc2nnnn2-c2ccccc2)c1OC	-24%	-14%
6	COc1cc2c(cc1OC)C(COc1ccc(F)cc1)N(C(=O)c1cccc(F)c1)CC2 (stereo not drawn)	-8%	?
7	COc1ccccc1N1CCN(C(=O)Cn2cnc3sc(C)c(S(=O)(=O)N4CCC(C)CC4)c3c2=O)CC1	1%	-6%
8	CCCCc1ccc(NC(=O)CSc2nc3ccccc3nc2N2CCOCC2)cc1	?	?
9	O=C(Nc1ccc(O)c(-c2nc3ccccc3o2)c1)c1ccc(Br)cc1	-2%	-25%[11.5 µM]
10	COC(=O)c1sccc1S(=O)(=O)N(CC(=O)Nc1ccc(C)cc1)c1ccccc1	-46%	4%
11	CCc1ccccc1NC(=O)C1(C)Cc2ccccc2C(=O)O1 (stereo not drawn)	1%	-13%
12	COc1ccc(-c2nnc(SCc3cccc(Cl)c3)o2)cc1	-2%	-9%
13	CCOc1ccc(CCNC(=O)Cn2nc(-c3ccc(C)cc3)ccc2=O)cc1OCC	1%	-30%
14	CC(C)NC(=O)N1CCC(N2CCN(Cc3ccc(F)cc3)C(=O)C2=O)CC1	-18%	3%
15	COc1cc(OC)c(OC)cc1CN1CCc2nc(N3CCN(C)CC3)ncc2C1	-29%	-19%
16	COc1ccc(NC(=O)c2oc3ccccc3c2NC(=O)Cc2cccs2)cc1	-6%	-17%
17	Cc1ccc(-n2nc(CO)c(C(=O)NCCCc3ccccc3)n2)cc1	0%	-9%
18	Cc1ccc(OC(C)C(=O)N2CCN(CCc3ccncc3)CC2)cc1C (stereo not drawn)	8%	-33%
19	COc1ccc(-c2noc(N3CCC(C(=O)N(C)c4cc(Cl)ccc4OC)CC3)n2)cc1	-4%	?
20	CCOC(=O)c1c(NC(=O)c2ccc(S(=O)(=O)N(CC(C)C)CC(C)C)cc2)sc2c1CCN(C(=O)OCC)C2	5%	-6%
21	Cc1ccc(N2CC(NC(=O)C3CC3)CC2=O)cc1C (stereo not drawn)	?	-20%
22	COc1ccc(NC(=O)CSCc2cnn(-c3ccccc3)c2-n2cccc2)cc1	12%	-22%
23	O=c1c2oc3ccccc3c2n(Cc2ccccc2Cl)c(=O)n1Cc1ccc2c(c1)OCO2	-8%	-11%
24	COc1cccc(C(=O)N2CCN(CCc3ccncc3)CC2)c1	-5%	-17%
25	Clc1cccc(-n2nnnc2NCc2ccccc2Oc2ccccn2)c1Cl	·	-19%
26	CC(=O)N1CCc2c(sc3c2c(=O)n(Cc2ccccc2)c(=O)n3Cc2cccc(Cl)c2)C1	?	?
27	CCOc1ccc(NS(=O)(=O)c2ccc(-c3cc(C)no3)s2)cc1	-21%	?
28	CCCn1c(SCC(O)c2cccc(OC)c2)nc2ccccc21 (stereo not drawn)	-14%	-15%
29	Cc1ccccc1-c1nc(CN2CCC(C(=O)NC(C)C)CC2)c(C)o1	-5%	-3%
30	CCOc1cccc(C2c3c(oc4cc(C)c(C)cc4c3=O)C(=O)N2c2nc(C)c(C)s2)c1 (stereo not drawn)	7%	-7%
31	COc1cc(C(CC(=O)Nc2cccc(C(C)=O)c2)N2Cc3ccccc3C2=O)cc(OC)c1OC (stereo not drawn)	-2%	-7%
32	Cc1nc(N2CCOCC2)c2c(C(=O)N3CCN(c4ccc(Cl)cc4)CC3)c(C)oc2n1	-3%	-11%
33	Cc1ccc(NC(=O)CSc2nc3ccc(Br)cc3[nH]2)c(C)c1	?	?
34	CCCc1cc(=O)[nH]c(SCc2nc(-c3ccccc3)no2)n1	-14%	0%
35	Cc1cn2c(=O)cc(COC(=O)c3ccccc3F)nc2s1	15%	-12%
36	CCOc1ccc(N(CC)S(=O)(=O)N2CCCC(C(=O)Nc3ccc(OC)c(Cl)c3)C2)cc1 (stereo not drawn)	12%	?
37	CC(=O)N1c2ccc(S(=O)(=O)NCc3ccc(Cl)cc3)cc2CC1C (stereo not drawn)	-30%	?
38	CCOc1ccc(-c2cc3nc(C4CCN(C(=O)OC(C)(C)C)CC4)c(C(=O)Nc4c(C)cccc4C)cn3n2)cc1	-17%	-31%
39	Cc1ccc(COc2ccc3oc(-c4ccccc4)c(C(=O)O)c3c2)cc1	-28%	-5%
40	CCC(C(=O)Nc1ccc(C(=O)OC)cc1)n1c(=O)c(-c2ccccc2NC(C)=O)nc2ccccc21 (stereo not drawn)	?	?
41	CCOc1ccc(NC(=O)CC2C(=O)N(c3cccc(OC)c3)C(=O)N2C2CCCCC2)cc1 (stereo not drawn)	46%	?
42	Cc1ccc(/C=C/c2nc3ccccc3n2S(=O)(=O)c2cccc(Cl)c2)cc1	-20%	18%
43	O=C1N(Cc2ccccc2Cl)c2ccccc2C1(O)c1c[nH]c2ccccc12 (stereo not drawn)	?	?
44	CCc1ccc(CNC(=O)CSc2cc(=O)n(CC)c3ccccc23)cc1	?	-20%
45	O=C(c1cccc(Cl)c1)N1c2ncnn2C2(CCCCC2)[C@@H]2CCCC[C@@H]21	-14%	?
46	Cn1c(=O)c2c(nc(Oc3ccccc3Cl)n2Cc2ccc(C#N)cc2)n(C)c1=O	0%	-9%
47	CCOc1ccccc1CNC(=O)C1CCN(S(=O)(=O)c2cccc3nonc23)CC1	-13%	2%
48	CCOc1ccccc1N(C)C(=O)C1CCCN(c2ncnc3onc(-c4ccc(F)cc4)c23)C1 (stereo not drawn)	-29%	-4%
49	COc1ccc(C(=O)Nc2cccc(-c3nc4cccnc4s3)c2C)c(OC)c1	-16%	0%
50	Cc1cccc(Cn2c(=O)n(-c3ccc(Cl)c(Cl)c3)c(=O)c3c(C)c(C)sc32)c1	-5%	-6%
51	CC1=C(C(=O)Nc2ccc(C)cc2C)C(c2ccc(C(C)C)cc2)n2nc(C(F)(F)F)nc2N1 (stereo not drawn)	?	?
52	Cc1cccc(OCC(=O)Nc2ccccc2OCc2cc(=O)n3ccccc3n2)c1	2%	2%
53	COc1ccc(NC(=O)c2cccc3c(=O)c4c([nH]c23)CCCC4)cc1	-39%	-16%
54	Cc1nn(-c2ccccc2)c2c1N(CC(=O)NCc1ccc(N(C)C)cc1)C(=O)CS2	-13%	-24%
55	CCOc1ccc(CNC(=O)c2cc(-c3ccc(Cl)s3)nc3ccccc23)cc1	?	-13%
56	COC(=O)c1cc2sc(C)cc2n1Cc1nc(-c2cccc(Br)c2)oc1C	3%	-17%
57	CCNc1nc(NCc2ccc(F)cc2)c2cnn(C)c2n1	-16%	?
58	CCN1C(=O)c2ccccc2Sc2ccc(NC(=O)N3CCN(c4cc(C)ccc4C)CC3)cc21	-58%	?
59	O=C(c1ccccc1F)N1CCC(c2nc3c(nnn3Cc3cccc(F)c3)c(=O)[nH]2)CC1	-3%	0%
60	COc1ccc(C(=O)NNc2ncnc3c2cnn3-c2ccc(C)cc2C)cc1	-6%	-31%

# Continuation:
No.	molecule	PMP22 txn	HTT promoter inh
61	CC(=O)c1ccc(NC(=O)CCCSc2nc(-c3ccco3)cc(C(F)(F)F)n2)cc1	?	?
62	CCc1ccc2oc(-c3ccc(NC(=O)c4cc(OC)c(OC)c(OC)c4)cc3)nc2c1	-70%	-8%[11.5 µM]
63	COC(=O)c1ccc(Cn2c(SCc3ccc(F)cc3)nc3ccncc32)cc1	?	-5%
64	Cc1cc2ccccc2n1CCNC(=O)c1ccccc1F	-26%	-14%
65	Cc1cccc(-n2c(=O)c3c4c(sc3n3cnnc23)CCCC4)c1	2%	-2%
66	Cn1cc(S(=O)(=O)c2ccc(Cl)cc2)c(=O)c2cc(F)c(N3CCCCCC3)cc21	-15%	-9%
67	COc1ccc(CCN(C)CCCC(C#N)(c2ccc(OC)c(OC)c2)C(C)C)cc1OC (stereo not drawn)	·	0%
68	COc1ccc(NC(=O)CCCc2nc(-c3ccco3)no2)c(OC)c1	-3%	-15%
69	CCc1ccccc1NC(=O)N1CCN(c2cc(-c3noc(C)n3)ccc2C)CC1	-66%	-16%
70	Cc1ccc(SCc2nc(-c3ccc(C(=O)NCCc4ccc(Cl)cc4)cc3)oc2C)cc1	-7%	-18%[11.5 µM]
71	N#Cc1ccccc1Cn1c(=O)n(CCCC(=O)NCc2ccccc2Cl)c(=O)c2ccccc21	?	1%
72	CC1=C(C(=O)Nc2ccccc2)C(c2ccc(O)cc2)n2nc(SCc3ccccc3)nc2N1 (stereo not drawn)	3%	-1%
73	Cc1cccc(-c2nc(CSc3nncn4c3cc3sccc34)c(C)o2)c1	-7%	0%
74	COc1cccc(-c2nc(CS(=O)(=O)CC(=O)Nc3c(C)cc(C)cc3C)c(C)o2)c1	?	?
75	COC(=O)c1cc2sc(Cl)cc2n1Cc1nc(-c2ccccc2C)oc1C	20%	-20%
76	Cc1ccc(NC(=O)CCn2cnc3onc(-c4ccc(F)cc4)c3c2=O)c(Br)c1	-23%	5%
77	CCc1ccc(NC(=O)CSc2nc(=O)n(Cc3cccnc3)c3c2CCC3)cc1	?	-90%
78	COc1ccccc1NC(=O)Cn1c(=O)n(-c2ccc(C)cc2)c(=O)c2c1cnn2C	?	-7%
79	Cc1cccc(Cn2cccc2CNS(=O)(=O)c2ccc(C)c(C)c2)c1	?	-26%
80	Cc1cccc(-c2nnc(SCc3cc(=O)c4cccc(Cl)c4[nH]3)n2C)c1	?	?
81	CC(C)CCNC(=O)c1ccc2c(c1)N(Cc1ccccc1F)C(=O)c1ccccc1S2(=O)=O	-14%	-22%
82	CCOc1ccc(-c2cn(-c3ccc(C)cc3)c(SCC(=O)Nc3ccc(C)cc3)n2)cc1	4%	-23%
83	Cc1cc(C)c(Cn2c(C3CC(=O)N(c4ccc(F)cc4)C3)nc3ccccc32)c(C)c1 (stereo not drawn)	?	-14%
84	COc1ccc2c(Sc3ccc(C)cc3)c(C(=O)NC(C)C)[nH]c2c1	16%	-28%
85	COc1ccccc1NC(=O)c1ncn(-c2ccccc2)n1	-1%	65%[activator]
86	CC1CCN(S(=O)(=O)c2ccc3c(c2)N(CC(=O)NC(C)(C)C)C(=O)CS3)CC1	3%	-21%
87	Cc1ccccc1-c1noc(-c2cc3ccccc3oc2=O)n1	?	110%[activator]
88	COc1ccc(CCNC(=O)c2cc(=O)c3cc(C)cc(C)c3o2)cc1OC	?	?
89	COc1ccc(N2CCN(S(=O)(=O)c3cc(Br)cc4c3N(C(=O)C3CC3)CC4)CC2)cc1	-29%	-10%
90	CCCOC(=O)c1ccc(Cn2nnc3sc4c(c3c2=O)CCC(C)C4)cc1 (stereo not drawn)	-24%	7%
91	CN1CCN(c2oc(/C=C/c3ccc(F)cc3)nc2C#N)CC1	3%	-10%
92	Cc1ccc(-n2nnc(-c3nc(-c4cccs4)no3)c2N)cc1C	-3%	42%[activator]
93	Cc1c(C(=O)NCc2ccccc2Br)oc2c1-c1[nH]ncc1CC2	-27%	24%
94	COc1ccc(CNc2ncnc3c2nc2n3CCCC2)cc1	-7%	-14%
95	Cc1ccc(C)c(NC(=O)Cn2c(=O)n(CCC(=O)NCc3ccc4c(c3)OCO4)c(=O)c3ccccc32)c1	-25%	2%
96	O=c1[nH]c(=O)n([C@H]2O[C@H](CO)[C@@H](O)[C@@H]2O)cc1/C=C\Br	·	5%
97	Cc1noc2ncnc(NCc3ccc(Cl)cc3)c12	-56%	?
98	Cc1ccc(Cn2c(Cc3ccccc3)nc3ccccc32)cc1	?	?
99	Cc1nc(N2CCCC2)ncc1C(=O)NCc1ccc(F)cc1	7%	-20%
100	CCOc1ccccc1CNC(=O)CCc1cn(Cc2ccc(Cl)cc2)c2ccccc12	?	?
101	CCN(CC)C(=O)Cn1cc(SCC(=O)Nc2ccccc2F)c2ccccc21	7%	-18%
102	Clc1ccc2c(c1)-n1cc(-c3ccccc3)nc1CO2	-8%	1%
103	[O-][n+]1ccccc1SSc1cccc[n+]1[O-]	·	?
104	Cc1nc2nc[nH]n2c(=O)c1NS(=O)(=O)c1ccc(Br)cc1	11%	-11%
105	CCc1ccc(-n2nc3ccc(NC(=O)COc4ccc(OC)cc4)cc3n2)cc1	-12%	6%
106	Cc1ccc(S(=O)(=O)c2cn(Cc3ccccc3)c3cc(N4CCCC4)c(F)cc3c2=O)cc1	-16%	0%

# Filtered by structure, the compounds so far containing a cyano group
No.	molecule	PMP22 txn	HTT promoter inh
46	Cn1c(=O)c2c(nc(Oc3ccccc3Cl)n2Cc2ccc(C#N)cc2)n(C)c1=O	0%	-9%
67	COc1ccc(CCN(C)CCCC(C#N)(c2ccc(OC)c(OC)c2)C(C)C)cc1OC (stereo not drawn)	·	0%
71	N#Cc1ccccc1Cn1c(=O)n(CCCC(=O)NCc2ccccc2Cl)c(=O)c2ccccc21	?	1%
91	CN1CCN(c2oc(/C=C/c3ccc(F)cc3)nc2C#N)CC1	3%	-10%
